# Screens deposited in PubChem BioAssay by National Center for Advancing Translational Sciences (NCATS).
# StopGo reporter: lowers the luciferase signal of an FMDV 2A StopGo reporter; Potency, µM (titrated, usually from 57.9 µM), for inactives: top-dose signal change, negative = less light; 410,000 compounds, 1.2% hits; human cells with a luciferase reporter of 2A StopGo recoding; control for the full effect not named in the record; active = well fitted falling curve with a large enough effect; inconclusive = small, poorly fitted or top-dose-only effect; inactive = no such curve, though single readings can be large or run the other way; tested in HEK293T cells; further: on the % scale 0 is the no-effect control and ±100 the full control effect; nearly all actives have a fitted effect of over 45% in size; luciferase light after 4 h
# Marburg entry inh: Marburg virus entry inhibition; Potency, µM (highest dose often 37.8 µM), for inactives: top-dose activity change, negative = inhibition, usual class: inhibitors; Marburg virus pseudotyped entry inhibition, cell reporter; control for the full effect not named in the record; about a third of the inactives were read at about 46 µM; 300,000 compounds, 1.8% hits; active = well fitted inhibition curve with a large enough effect; inconclusive = small, poorly fitted or top-dose-only effect, or effect the other way; inactive = flat fitted curve, though single readings scatter; tested in HEK293 cells; about a fifth of its hits are not listed in these tables; further: on the % scale 0 is the no-effect control and ±100 the full control effect; luciferase read-out
# NS1 function inh: inhibitors of influenza NS1 protein function. S. cerevisiae slowed by influenza A NS1, growth recovery by OD600. Potency, µM (top dose mostly 46.1 µM), for inactives: top-dose activity, positive = more growth. 270,000 compounds, 0.4% hits; active means well fitted rising curve with a large enough effect; inconclusive means small, poorly fitted or top-dose-only effect; inactive means no such curve, though single readings can be large or run the other way; further: nearly all actives have a fitted effect of over 50% in size
#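 Compounds were scored for reversing the slow growth caused by influenza A NS1 in S. cerevisiae, measured by optical density at 600 nm. Assay medium contained 2% galactose at pH 6.0; NS1-free yeast of the same strain were the positive control.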
# SARS PLpro yeast: SARS-CoV PLP inhibition in yeast. AID 485353. Potency, µM (series often up to 32.9 µM), for the others: top-dose activity, positive = growth rescue. 330,000 compounds, 0.19% hits. S. cerevisiae expressing SARS-CoV PLpro, growth rescue; control for the full effect not named in the record; active means well fitted rising curve with a large enough effect; inconclusive means small, poorly fitted or top-dose-only effect; inactive means no such curve, though single readings can be large or run the other way; further: 0% is about no effect; nearly all actives have a fitted effect of over 55% in size; growth read by luminescence after 48 h
# Cruzain inh noDet: cruzain (T. cruzi) inhibition without detergent. 200,000 compounds, 2.3% hits. purified cruzain, Z-FR-AMC fluorescence, no detergent. Potency, µM, for inactives: max response, negative = inhibition, most hits filed as inhibitors. P25779;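 further: plate controls were enzyme without inhibitor for no effect and buffer without enzyme for full effect; nearly all actives have a fitted effect of over 40% in size; top concentration of the series not given in the record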
# Target sequence (P25779 123-467 limits assumed): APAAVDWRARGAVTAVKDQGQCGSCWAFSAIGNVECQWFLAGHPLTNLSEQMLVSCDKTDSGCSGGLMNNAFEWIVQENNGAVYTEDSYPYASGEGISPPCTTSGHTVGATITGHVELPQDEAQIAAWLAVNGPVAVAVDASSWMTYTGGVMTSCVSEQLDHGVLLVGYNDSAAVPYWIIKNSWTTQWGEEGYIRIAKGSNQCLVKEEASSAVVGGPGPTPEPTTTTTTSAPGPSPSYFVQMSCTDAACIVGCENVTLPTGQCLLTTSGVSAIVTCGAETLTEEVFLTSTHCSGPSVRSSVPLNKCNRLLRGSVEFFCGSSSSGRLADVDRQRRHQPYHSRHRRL
#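 Detergent-free condition (0.00005% Triton X-100) in acetate buffer pH 5.5 with DTT. 1.5 nM enzyme and compound were pre-mixed 15 min, then 2 uM Z-FR-AMC substrate added; reaction progress from fluorescence change between first and third reads (60 s).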
# Lassa entry inh: Lassa virus entry inhibition; Lassa virus pseudotype entry inhibition, cell reporter; control for the full effect not named in the record; Potency, µM (titrated, usually from 37.9 µM), inactives show at the top dose activity change, negative = inhibition, usual class: inhibitors; 300,000 compounds, 1.2% hits; AID 540256; active means well fitted inhibition curve with a large enough effect; inconclusive means small, poorly fitted or top-dose-only effect, or effect the other way; inactive means flat fitted curve, though single readings scatter; tested in HEK293 cells; further: on the % scale 0 is the no-effect control and ±100 the full control effect; nearly all actives have a fitted effect of over 50% in size; luciferase read-out
# Cruzain inh Det: cruzain (T. cruzi) inhibition with detergent. AID 1478. 200,000 compounds, 0.43% hits. Potency, µM, inactives show max response, negative = inhibition, actives largely listed as inhibitors. purified cruzain, Z-FR-AMC fluorescence, 0.01% Triton;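 further: plate controls were neutral wells for no effect and buffer without enzyme for full effect; nearly all actives have a fitted effect of over 40% in size; top concentration of the series not given in the record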
#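 Cruzain (1.5 nM) preincubated 15 min at RT with compound in 100 mM sodium acetate pH 5.5, 5 mM DTT, 0.01% Triton X-100. Reaction started with 2 uM Z-FR-AMC; AMC fluorescence (ex 360/em 450 nm) change over 60 s gave rate.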
# RE007 growth inh: less growth of the S. pombe RE007 Vpr strain. S. pombe RE007 Vpr strain, BacTiter-Glo ATP luminescence, 24 h; control for the full effect not named in the record. Potency, µM (doses to about 92.2 µM), for the others: at the highest dose activity change, negative = less growth. 360,000 compounds, 0.21% hits; active = well fitted falling curve with a large enough effect; inconclusive = small, poorly fitted or top-dose-only effect; inactive = no such curve, though single readings can be large or run the other way;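 further: on the % scale 0 is the no-effect control and ±100 the full control effect; nearly all actives have a fitted effect of over 50% in size; the assay follows cell death caused by Vpr and the record does not say whether a fall means rescue or toxicity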
#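 Fission yeast strain RE007, carrying one chromosomally integrated HIV-1 vpr copy, was seeded at OD 0.01 in PMG+AL medium with 23 nL pinned compound. After 24 h at 30 °C and 99% humidity, viability was read by BacTiter-Glo luminescence.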
# The depositor's hits bear a star; ? = inconclusive; nt = no result given; & = joins results of further samples; [ ] = remark or other dose. Unless noted, the call rests on the fitted dose curve; in most records, active means well fitted curve in the direction sought with a large enough effect; inconclusive means small, poorly fitted or top-dose-only effect, or another doubt; inactive means no such curve, though single readings can be large; an effect the other way counts as inactive or inconclusive. Potency means the concentration at half of the fitted maximal effect.
SMILES,StopGo reporter,Marburg entry inh,NS1 function inh,SARS PLpro yeast,Cruzain inh noDet,Lassa entry inh,Cruzain inh Det,RE007 growth inh
CNC(=O)CN(Cc1ccccc1)S(=O)(=O)c1ccccc1,0%,9%,-5%,3%,-1%,-2%,6.7%,-26%
Cc1ccc(NC2CC(=O)N(CCc3ccccc3)C2=O)cc1 (stereo not given),20%,?,-10%,7%,-4%,?,-4.5%,?
COc1ccc(-c2cn3ccccc3n2)cc1[N+](=O)[O-],39%[activator],?,-8%,-37%,2%,?,-1.6%,-23%
O=C(Nc1cccc(S(=O)(=O)N2CCOCC2)c1)c1ccc2c(=O)n3c(nc2c1)CCCCC3,?,?,-2%,2%,nt,?,nt,-3%
CC(CNC(=O)CCC(=O)N1CCOc2ccc(Cl)cc21)c1ccccc1 (stereo not given),-19%,nt,-12%,1%,nt,nt,nt,4%
Cc1c(NC(=O)c2cc(-c3ccccc3)nc3ccccc23)c(=O)n(-c2ccccc2)n1C,-20%,?,nt,4%,nt,2%,nt,14%
COc1cc(OC)c(NC(=O)c2cc3c(=O)oc4ccc(C)cc4c3s2)cc1Cl,-20%,3%[46.1 µM],nt,nt,-5%,-1%[46.1 µM],4.4%,nt
COc1cc(-c2nc3n(c(=O)c2C#N)CCS3)cc(OC)c1OC,-3%,-1%[46.1 µM],12%,-2%,nt,-2%[46.1 µM],nt,-14%
CCOC(=O)N1CCC(NC(=O)c2cc3ccccn3n2)CC1,-7%,nt,-1%,-4%,2%,nt,3.4%,-6%
CCO[C@H]1OC(C(=O)N2CCN(Cc3ccccc3)CC2)=C[C@@H](C2CCCCC2)[C@@H]1CCCO,?,nt,-12%,1%,nt,nt,nt,2%
C=Cn1cc[n+](CC(=O)c2ccc(Cl)cc2)c1,-26%,4%,4%,-5%,nt,27%,nt,-13%
CC1(C(=O)NNC(=S)NCc2ccco2)CC1(Cl)Cl (stereo not given),-11%,nt,0%,-1%,nt,nt,nt,10%
O=C(Nc1ccc(F)cc1)c1ccccc1NS(=O)(=O)N1CCCC1,-31%,0%[46.1 µM],1%,-2%,nt,-2%,nt,-2%
CCOCCCNC(=O)C(NC(=O)c1ccccn1)c1ccc(C)cc1 (stereo not given),16%,-19%[46.1 µM],-24%,11%,9%,-1%,0.4%,28%
COc1ccc(-n2nc([N+](=O)[O-])c(=NCCc3ccccc3)n2O)cc1,8%,?,-14%,2%,9%,16%,-7.5%,18%
COc1ccccc1N(CC(=O)NC1CCCCC1)S(C)(=O)=O,nt,-3%,?,-1%,-8%,17%,0.8%,-1%
Cc1ccc(C=Nc2cc([N+](=O)[O-])ccc2C)s1,?,?,6%,-4%,-16%,4%,-1.1%,-18%
O=C(NCC1CCCO1)c1c(O)c2cccc3c2n(c1=O)CC3 (stereo not given),3%,16%,-33%,-4%,?,4%,-2.3%,-2%
CC1=Nc2cc(C(=O)N3CCCC3)ccc2Sc2ccc(C)cc21,-7%,nt,10%,-1%,nt,nt,nt,14%
CCn1c(Sc2nc(C)nc3scc(-c4cccs4)c23)n[nH]c1=O,?,-16%,-215%,-25%,1%,-7%,-0.7%,12%
COC(=O)[C@@]1(Cc2ccc(OC)cc2)[C@@H]2[C@@H](CC(=O)[C@H]2CC(=O)C(=O)N(C)C)CN1C(=O)c1ccccc1,-17%,-7%,-14%,3%,?,0%,0.9%&-0.7%,1%
O=C(NCCc1cn2ccccc2n1)c1ccc(Br)o1,-13%,nt,0%,5%,-1%,nt,-2.4%,0%
Cc1c(C(=O)NN)nn(-c2ccc(Cl)cc2)c(=O)c1C#N,13µM*,?,nt,1%,nt,-23%,nt,-12%
COC(=O)CCCC1=CC2=CC(=O)C(C)(OC(=O)c3cccs3)C(=O)C2=CN1CCN1CCOCC1 (stereo not given),-3%,15%&15%[14.2 µM],-7%,3%,nt,nt,nt,-8%
NC(=O)c1c(NC(=O)CSc2nc3c(c(C(F)(F)F)n2)CCc2ccccc2-3)sc2c1CCCC2,-8%,-12%,9%,3%,?,1%,0.4%,-10%
O=C(Cn1cncn1)N/N=C/c1cccc2ccccc12,-13%,?,-15%,-3%,-17%,-10%,-7.4%,-3%
CSc1cccc(NC(=O)C2(S(=O)(=O)c3ccc(C)cc3)CC2)c1,-23%,-10%[46.1 µM],nt,0%,nt,-19%,nt,-5%
Cc1ccc(-c2nc3ccc(Cl)cn3c2Nc2ccc3c(c2)OCCO3)s1,13%,?,nt,nt,-25%,19%[46.1 µM],-3.5%,nt
O=C(CSc1nc2c(c(=O)n1-c1ccc(F)cc1)SCC2)NCC1CCCO1 (stereo not given),0%,-8%,1%,2%,1%,18%,-0.1%,2%
CC(OC(=O)c1cccnc1SCc1cc(=O)n2ccccc2n1)c1ccccn1 (stereo not given),-1%,6%,-148%,-13%,13%,-1%,0.4%,-18%
COC(=O)C(NC(=O)c1ccc(OC)cc1)(Nc1ncc(S(=O)(=O)c2ccc([N+](=O)[O-])cc2)s1)C(F)(F)F (stereo not given),?,?,-15%,-1%,-9%,?,1.2%,-11%
O=[n+]1c2c(n([O-])c3cc(Br)ccc31)CCCC2,7%,?,13%,-1%,5%,-16%,-4.6%,2%
OC1(c2ccc(F)cc2)CN(c2ccccc2)C2=[N+]1CCS2 (stereo not given),-23%,?,7%,3%,0%,0%,-0.9%,-30%
COc1ccc2c(CSc3nnc(-c4cccnc4)n3-c3ccccc3F)cc(=O)oc2c1,-16%,-18%,3%,8%,0%,-12%,-5.3%,0%
O=C(Cn1nc(-c2ccccc2)nc(Cc2ccccc2)c1=O)Nc1ccccc1,5%,nt,nt,nt,-9%,-5%[46.1 µM],0.2%,nt
O=C(NCc1ccccc1)c1nc2c(nnn2Cc2cccc(Cl)c2)c(=O)[nH]1,nt,-21%,8%,-10%,10%,-2%,-3.9%,-22%
CCS(=O)(=O)c1ccc(O)c(NC(=O)COc2ccc(C)cc2)c1,-5%,9%,-17%,-9%,-2%,-3%,-4.0%,16%
CCOC(=O)Nc1sc2c(c1C#N)CCCC2,52%[activator],?,-17%,-10%,5%,20%,-4.7%,?
Cc1ccc(C(=O)n2nc(C)c(S(=O)(=O)N3CCCCCC3)c2C)cc1,-8%,nt,nt,nt,8%,24%[46.1 µM],-2.3%,nt
O=C(O)/C=C/c1ccccc1Oc1ccccc1,8%,5%,-12%,-6%,-2%,19%,-4.4%,-16%
Cc1cc(N2CCCCC2)nc(SCc2ccc(C#N)cc2)n1,?,?,-23%,-9%,2%,?,-4.9%,-2%
COc1ccc(C(=O)NCc2nnc(SCC(=O)Nc3cccc(OC)c3)o2)cc1,-9%,nt,3%,-4%,nt,nt,nt,12%
C=CCn1nnnc1SCC(=O)Nc1ccc(OC)cc1,16%,nt,0%,0%,nt,nt,nt,8%
CCN1CCN(C(c2ccc(OC)cc2)C(O)C(=O)c2c[nH]c3ccccc23)CC1 (stereo not given),1%,-1%,6%,0%,-7%,-5%,-7.3%,-11%
O=C(Cn1nc2c(cc1=O)CCCC2)Nc1ccccc1C(F)(F)F,-4%,nt,nt,nt,1%,12%[46.1 µM],1.5%,nt
COc1cccc(-c2nc3sc4c(c3c(=O)[nH]2)CCCCC4)c1,39%[activator],5%,-9%,8%,?,15%,-3.4%,-25%
Cc1cc(NC(=O)CSc2nnc(-c3ccc(S(=O)(=O)N4CCCC4)cc3)n2C)no1,nt,-3%,-3%,-1%,-1%,3%,4.3%,3%
O=C(CN1CCN(c2ccc(O)cc2)CC1)Nc1ccc(-c2ccccc2)cc1,1%,16%[46.1 µM],-3%,-20%,nt,9%[46.1 µM],nt,2%
Cc1ccccc1S(=O)(=O)Cc1ccc(C(=O)NCc2ccco2)o1,17%,2%[46.1 µM],3%,1%,nt,?,nt,6%
CC(Oc1ccccc1)C(=O)N1CCN=C1SCc1ccc(F)cc1 (stereo not given),-29%,nt,-67%,-1%,nt,nt,nt,-9%
CCC(=O)c1ccc(OC(=O)N(C)c2ccccc2)cc1,29%,14%[46.1 µM],-10%,-2%,nt,12%,nt,3%
COc1ccc(NC(=O)Cn2nnc(-c3ccccc3N)n2)cc1OC,nt,-16%,4%,0%,-14%,-24%,-27%,0%
Cc1ccc(Nc2nc3ccccc3c(=O)s2)cc1,32%[activator],nt,3%,0%,nt,nt,nt,3%
CCc1ccc(NC2=NCC(=O)N2Cc2ccc3c(c2)OCO3)cc1,0%,6%,-13%,-10%,-5%,-17%,2.9%,-10%
NC(=O)COC(=O)CCCc1c[nH]c2ccccc12,-19%,11%,-3%,-1%,6%,10%,-0.5%,-2%
Oc1ccc(Nc2nc(Cl)nc(NCc3ccco3)n2)cc1,0%,5%,?,-8%,?,1%,-3.4%,6%
Cc1ccc(C(=O)C2(C)C3c4cc(Br)ccc4OC(=O)C32C(=O)c2ccco2)cc1 (stereo not given),-7%,1%,21%,1%,?,0%,0.2%,11%
CCOC(=O)c1cc(-c2ccccc2)nc2ccc(C)cc12,-26%,nt,-6%,-2%,nt,nt,nt,7%
Cc1ccc(NC(=O)c2sc3nc4c(cc3c2N)CN(Cc2ccccc2)CC4)cc1,-20%,?,nt,nt,38%,19%[46.1 µM],1.7%,nt
N#Cc1ccc(-c2csc(NC(=O)c3cc(-c4cccs4)nc4ccccc34)n2)cc1,0%,nt,-4%,-1%,nt,nt,nt,4%
O=C1NC2(CCCC2)C(=O)N1Cc1cc(=O)n2ccsc2n1,12%,2%,2%,1%,nt,0%,nt,-8%
Cc1ccccc1CN1C(=O)C(C)N=C(c2ccccc2)c2ccccc21 (stereo not given),?,nt,nt,nt,-6%,-19%[46.1 µM],-4.1%,nt
CC(C)(C)OC(=O)N1CCC(c2c(C(=O)N3CCN(c4ccccn4)CC3)cnn2-c2ccccc2Cl)CC1,-21%,nt,nt,nt,?,?,-3.8%,nt
